Bioassay records (PubChem)
Measles inh: inhibitors of measles virus growth in infected cells; 33,000 compounds, 0.1% hits; infected Vero cells, GFP fluorescence, 64 h; stronger effect = lower value; z-score (no concentration beside the values);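 active = z-score under -3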;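 also: score is relative to mean and SD of the compound wells of a plate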
* marks the source's active call; other numbers are inactive results.

SMILES | Measles inh
O=C(c1cccn2c(=O)c3cc(Cl)ccc3nc12)N1CCN(Cc2ccccc2)CC1 | 0.46
O=C(CCN1CCOCC1)c1ccc(Cl)cc1 | -2
CCOC(=O)c1c(NC(=O)c2cccc(Br)c2)sc2c1CCCCC2 | 0.51
COC(=O)C(NC(=O)c1cc2nc(-c3ccc(OC)cc3)cc(C(F)(F)F)n2n1)C12CC3CC(CC(C3)C1)C2 (stereo not drawn) | 0.2
CC(C)CNC(=O)c1nn2c(C(F)(F)F)cc(-c3cccs3)nc2c1Br | -0.66
CCCn1c(C(C)NC(=O)c2ccc(OC)c(OC)c2)nc2ccccc21 (stereo not drawn) | -1.4
COCCn1cnc2sc(C(=O)N3CCCCC3C)c(C)c2c1=O (stereo not drawn) | -0.44
O=[N+]([O-])c1ccc(N2CCCCCC2)s1 | -2.8
Cc1ccc(-n2nc(C)cc2N)cc1 | -0.1
CCOC(=O)CC(NCc1ccc(Cl)c([N+](=O)[O-])c1)c1cccs1 (stereo not drawn) | -1.1
COc1cc(C(=O)Nc2ccc3c(c2)nc(C)n3Cc2ccccc2)cc(OC)c1OC | 1.1
CC(=O)c1cc(C#N)c(SCC(=O)c2cc3ccccc3oc2=O)nc1C | 1.2
CC(C)(C)c1nc(CN2CCOCC2)ccc1O | 0.57
COc1cc(-c2ncnn2-c2sc3c(c2C#N)CCCCC3)ccc1O | -0.53
Cc1cccc(NC(=O)CSc2nc3ccccc3c(=O)n2-c2ccccc2)c1C | -0.37
CCCc1cc(=O)[nH]c(/N=C(/N)Nc2ccc(OC)cc2)n1 | 0.4
CCOC(=O)c1c(-c2ccc(OC)cc2)oc2ccc(OCc3cccc([N+](=O)[O-])c3)cc12 | -0.12
CC(C)=C1C2C=CC1C1C(=O)N(c3cccc(Cl)c3)C(=O)C21 (stereo not drawn) | 0.2
CCc1c(C(=O)N2CCCCC2)[nH]c(C)c1C(C)=O | 0.25
O=C(Nc1cc2cccc([N+](=O)[O-])c2oc1=O)c1ccccc1[N+](=O)[O-] | -0.21
CC(=O)NC1=NN(C(C)=O)C(c2ccc(C)cc2)S1 (stereo not drawn) | -1
CCc1ccc(C2C(C(=O)OCCOC)=C(C)NC3=C2C(=O)CCC3)cc1 (stereo not drawn) | -0.43
CCN(C(=O)CN1C(=S)NC(C)(C)CC1C)c1ccc(C)c(C)c1 (stereo not drawn) | 0.19
CC(C)CN1C(=O)c2ccc(Oc3ccc([N+](=O)[O-])cc3)cc2C1=O | 0.16
CC(C)(C)c1ccc(C(=O)Nc2c3c(nn2-c2ccccc2)CSC3)cc1 | -1.2
COc1ccc(C2C(=O)N(C3CCCCCC3)CC(=O)N2CC2COc3ccccc3O2)cc1 (stereo not drawn) | 1.1
CC(=O)Nc1ccc(S(=O)(=O)N2CCN(c3c(Cl)cccc3[N+](=O)[O-])CC2)cc1 | 0.05
NC(=Nc1nc2c(c(=O)[nH]1)CCCC2)Nc1ccccc1 | -0.24
CCSC1=NC(=Cc2ccc(N(CC)CC)cc2OC)C(=O)S1 | 0.72
Cc1cccn2c(=O)c3cc(C(=O)N4CCCCCC4)sc3nc12 | -0.73
CCN(CC)CCn1c(C)nn2c3ccccc3nc12 | 0.82
Cc1cc(NS(=O)(=O)c2ccc(NC(=O)Nc3ccccc3)cc2)no1 | -0.06
C=CCn1c(=S)[nH]c2c1c(=O)n(C)c(=O)n2C | 0.52
O=C(Nc1sc2c(c1C(=O)O)CCC2)c1ccccc1Br | 0.23
O=C(Cn1c(=O)[nH]c2ccsc2c1=O)N1CCN(C2CCCCC2)CC1 | -0.58
COc1ccc(-c2cc(C(F)(F)F)n3nc(C(=O)N4CCCC4)cc3n2)cc1 | 0.1
Cc1cccc(-n2ncc3c(N4CCCC4)ncnc32)c1 | 0.73
COc1ccc(CCNC(=O)c2cc(=O)[nH]c3ccc(S(=O)(=O)N4CCCC4)cc23)cc1OC | 0.99
Cc1sc2nc(SCC(=O)N3CCCCC3)[nH]c(=O)c2c1C | 0.01
C=CCNC(=O)CCCn1nc([N+](=O)[O-])c(Br)c1C | 0.49

Seven of the entries above in order of their number in Measles inh, descending:
| smiles | Measles inh |
| --- | --- |
| CCN(CC)CCn1c(C)nn2c3ccccc3nc12 | 0.82 |
| CCCc1cc(=O)[nH]c(/N=C(/N)Nc2ccc(OC)cc2)n1 | 0.4 |
| O=C(Nc1sc2c(c1C(=O)O)CCC2)c1ccccc1Br | 0.23 |
| CC(C)CN1C(=O)c2ccc(Oc3ccc([N+](=O)[O-])cc3)cc2C1=O | 0.16 |
| CC(=O)Nc1ccc(S(=O)(=O)N2CCN(c3c(Cl)cccc3[N+](=O)[O-])CC2)cc1 | 0.05 |
| CCOC(=O)c1c(-c2ccc(OC)cc2)oc2ccc(OCc3cccc([N+](=O)[O-])c3)cc12 | -0.12 |
| O=C(CCN1CCOCC1)c1ccc(Cl)cc1 | -2 |

Going on with the list:
SMILES | Measles inh
CC1(C)CC(=O)c2cc3c(N)c(C(=O)Nc4ccccc4Cl)sc3nc2C1 | -0.14
O=C(CC(Sc1cccs1)c1cccc([N+](=O)[O-])c1)c1ccccc1 (stereo not drawn) | -1.3
O=C(Cn1nc(-c2ccccc2)ccc1=O)N1CCOCC1 | -0.34
O=C(Nc1ccc(Br)cc1)c1cccc(C(=O)Nc2ccc(Br)cc2)c1 | -1.3
Cc1ccc(N2C(=O)c3ccc([N+](=O)[O-])cc3C2=O)cc1I | 0.8
CCOC(=O)c1oc2ccc(Br)cc2c1NC(=O)CN1CCOCC1 | -0.01
O=C(O)c1ccc2c(c1)C1C=CCC1C(C(=O)O)N2 (stereo not drawn) | -0.38
COc1ccc(OC)c(NC(=O)C2CCN(S(=O)(=O)c3ccc(C)cc3)CC2)c1 | -0.72
Cc1ccc(Cl)c(NC2=CC(=O)CC(C)(C)C2)c1 | 0.53
CCCOC(=O)C1=C(C)NC2=C(C(=O)CC(c3ccc(OC)cc3)C2)C1c1ccccc1F (stereo not drawn) | 0.6
CCOc1ccccc1NC(=O)Cn1cnc2sc(C)c(S(=O)(=O)N3CCC(C)CC3)c2c1=O | -0.83
COc1ccc(-n2nc(C(=O)NCC(=O)N3CCCCCC3)c3ccccc3c2=O)cc1OC | 0.41
O=C(c1ccc(N2CC3CC(C2)c2cccc(=O)n2C3)c(NS(=O)(=O)c2ccc(F)cc2)c1)N1CCN(c2ccc(F)cc2)CC1 (stereo not drawn) | 0.56
COc1ccc(C2CC(c3ccc(I)cc3)Nc3nnnn32)cc1 (stereo not drawn) | 0.15
Fc1ccc(-c2cc(C(F)(F)F)nc(N3CCc4ccccc4C3)n2)cc1 | -0.81
CC1(C)CC(=O)c2cc3c(N)c(C(=O)c4ccc([N+](=O)[O-])cc4)sc3nc2C1 | 1.6
Cc1ccc(-c2nn3c(=O)c(C)nnc3s2)cc1 | 0.1
Cc1cccn2c(=O)c3cc(C(=O)Nc4ccccc4F)sc3nc12 | -0.97
CCOc1cccc(C(=O)Nc2nnc(-c3ccco3)s2)c1 | 0.93
COc1cc2c(cc1OC)C(COc1ccc3c(C)cc(=O)oc3c1)N(C(=O)c1ccccc1F)CC2 (stereo not drawn) | -2.8

In another format: results already given.
mol	Measles inh
CC1(C)CC(=O)c2cc3c(N)c(C(=O)c4ccc([N+](=O)[O-])cc4)sc3nc2C1	1.6
CCOC(=O)CC(NCc1ccc(Cl)c([N+](=O)[O-])c1)c1cccs1 (stereo not drawn)	-1.1
CC(=O)NC1=NN(C(C)=O)C(c2ccc(C)cc2)S1 (stereo not drawn)	-1

New compounds follow
SMILES | Measles inh
Cc1ncc(CO)c2cc(C(=O)Nc3ccccc3F)c(=O)oc12 | -0.18
CCc1nnc(NC(=O)CSc2ncnc3c2oc2ccccc23)s1 | 0.19
CN(CCOC(=O)Cn1cnc2ccccc2c1=O)C1=NS(=O)(=O)c2ccccc21 | -0.16
O=C(O)c1ccc(-n2c(C=Cc3cccc4ccccc34)nc3ccccc3c2=O)cc1 | 0.34
COc1ccc(C2C=C(c3ccc(C)cc3)Nc3nnnn32)c(OC)c1 (stereo not drawn) | 0.28
COCCOC(=O)C1=C(C)NC2=C(C(=O)CC(c3ccccc3Cl)C2)C1c1ccc(C)s1 (stereo not drawn) | 0.05
CC(=O)OC1CC(C)N(C(=O)c2ccccc2)c2ccc(C)cc21 (stereo not drawn) | -0.06
Cc1ccccc1NC(=O)CC1SC(=Nc2ccccc2)N(C(C)(C)C)C1=O (stereo not drawn) | 0.16
Cc1ccc2c(c1)C(c1ccc(F)cc1)N(C(=O)c1ccc(Br)o1)CC(=O)N2 (stereo not drawn) | 0.02
O=C(Cn1nnc(-c2ccccc2)n1)OCc1ccc([N+](=O)[O-])cc1 | 0.06
O=C(c1ccccn1)N(Cc1ccco1)C1(C(=O)NC2CCCCC2)CCCCC1 | -0.52
O=C(Nc1ccc2ccccc2c1)N1CCN(c2ncc(C(F)(F)F)cc2Cl)CC1 | 0.78
CCOC(=O)c1nnc2nc[nH]n2c1=O | 0.28
O=C1CN(C(=O)COc2ccc(Cl)cc2)C(c2ccccc2)c2cc(Cl)ccc2N1 (stereo not drawn) | 1.9
COc1ccc(C2C(C(=O)Nc3ccccn3)CCC(=O)N2c2ccc(OC)cc2)cc1 (stereo not drawn) | -0.69
Cc1sc2nc(SCCCC(=O)NCCO)[nH]c(=O)c2c1C | -0.37
Cc1ccc(NC(=O)c2ccc(C)c(C)c2)cc1 | -0.32
CC(C)(C)OC(=O)CSc1ncnc2sc3c(c12)CCCC3 | 1
Cc1nn(CC(O)Cn2c(C)c(C)c3ccccc32)c(C)c1Br (stereo not drawn) | -1.1
Cc1ccc(C(=O)Nc2ccc(C)cc2Br)cc1 | 1.3
Nc1c(C(=O)NCc2ccc3c(c2)OCO3)nnn1-c1ccc(OC(F)(F)F)cc1 | 0.07
CCCCNC(=O)C1CCC(=O)N1Cc1ccc(C)cc1 (stereo not drawn) | -0.45
CCCNc1nc2c(c(=O)[nH]c(=O)n2C)n1CCc1ccccc1 | 0.59
O=C(O)c1cc2c3c(c1)C1C=CCC1C(c1ccccc1F)N3CC1CC=CC21 (stereo not drawn) | 0.91
O=C(O)C1CC(=O)N(CCc2ccccc2)C(=Nc2ccc(F)cc2)S1 (stereo not drawn) | 0.03
O=C(NC1CC1)C1CCC(Cn2c(=S)[nH]c3ccsc3c2=O)CC1 (stereo not drawn) | -0.56
COc1ccc(C=Nc2nc3ccc(Br)cc3s2)cc1 | 0.35
Cc1cccc(C2CC(c3ccc(Br)cc3)Nc3ncnn32)c1 (stereo not drawn) | -0.27
CSCc1nnc(NC(=O)c2ccc(S(=O)(=O)N(C)C3CCCCC3)cc2)o1 | -0.91
COc1ccc(N2CCN(CCNC(=O)c3cc(-c4ccc(Cl)s4)nc4ccccc34)CC2)cc1 | 2.3
CCc1ccc(NC(=O)c2cn(C3CCCC3)c(=O)c3c2c2ccccc2n3C)cc1 | 0.05
CCOC(=O)C1C(=O)CC(C)(O)C(C(=O)OCC)C1c1ccc(CC)cc1 (stereo not drawn) | 0.36
O=C(O)CCNc1ccccc1C(=O)O | 0.07
CCCN1CCN(C(=O)CCNC(=O)Cn2cnc3ccccc3c2=O)CC1 | 1.3
COc1ccc2cc3cc(C(=O)N(C)c4cc(Cl)ccc4OC)oc3nc2c1 | -1.3
O=C(Nc1ccc2c(c1)OCCO2)c1ccc(CN2CCc3ccccc3C2)cc1 | -0.05
CCCCCCOc1ccc(-c2ccc(C(=O)O)cc2)cc1 | -0.1
CCOC(=O)c1cccc(NC(=O)c2nn(-c3ccc(C)cc3)c(=O)c3c2c2ccccc2n3C)c1 | 0.76
COC(=O)c1ccc(C=Nc2ccc3oc(-c4cccc(Br)c4)nc3c2)cc1 | 0
c1ccc(Nc2c3c(nc4ccccc24)CCC3)cc1 | -0.69

A stretch of the results above, for reference:
SMILES | Measles inh
COc1ccc2cc3cc(C(=O)N(C)c4cc(Cl)ccc4OC)oc3nc2c1 | -1.3
O=C(Nc1ccc2c(c1)OCCO2)c1ccc(CN2CCc3ccccc3C2)cc1 | -0.05
CCCCCCOc1ccc(-c2ccc(C(=O)O)cc2)cc1 | -0.1
CCOC(=O)c1cccc(NC(=O)c2nn(-c3ccc(C)cc3)c(=O)c3c2c2ccccc2n3C)c1 | 0.76
COC(=O)c1ccc(C=Nc2ccc3oc(-c4cccc(Br)c4)nc3c2)cc1 | 0
c1ccc(Nc2c3c(nc4ccccc24)CCC3)cc1 | -0.69

(listing goes on)
SMILES | Measles inh
O=C(O)CCCN1C(=O)c2cccc3c(O)ccc(c23)C1=O | 1.9
CCOC(=O)C1CCCN(C(=O)c2cc3cc4ccc(OC)cc4nc3s2)C1 (stereo not drawn) | -0.33
CNC(=O)c1ccc(S(=O)(=O)c2ccc(Cl)cc2)c(NC(C)=O)c1 | 1.9
C=CCSc1nnc2c(n1)OC(c1ccc(C(=O)OC)cc1)Nc1ccccc1-2 (stereo not drawn) | 0.44
COCCNC(=O)c1ccc(N2CCCCC2)c(NS(=O)(=O)c2ccc(C)cc2)c1 | -0.7
COc1cc(C2C(C(=O)OCC3CCCO3)=C(C)NC3=C2C(=O)CCC3)cc(Cl)c1O (stereo not drawn) | 0.08
C=CC(=C)CC(NC)c1ccccc1 (stereo not drawn) | -0.14
CCOC(=O)C1=C(C)NC(C)=C(C(=O)OCC)C1c1ccc(OC)c(O)c1 | -0.66
Cc1ccc(NS(=O)(=O)c2ccc(N)cc2)nc1 | 0.13
CC1=C(C(=O)OC(C)C)C(c2cccs2)C2=C(CC(c3ccccc3)CC2=O)N1 (stereo not drawn) | -0.4
CCOC(=O)CSCC(=O)N1N=C(c2ccc(Br)cc2)CC1c1ccc(F)cc1 (stereo not drawn) | 0.31
COc1ccc(-c2cc(=Nc3cccc([N+](=O)[O-])c3)c3cc(O)ccc3o2)cc1 | 0.05
CS(=O)(=O)N1CCN(c2ccc([N+](=O)[O-])c(N3CCOCC3)c2)CC1 | -0.14
O=C(CC1Sc2ccc(C(F)(F)F)cc2NC1=O)Nc1cccc(C(F)(F)F)c1 (stereo not drawn) | -0.35
CCOC(=O)c1ccc(N2CCN(c3cc(C)ccc3C)CC2)c(NC(=O)Nc2ccccc2)c1 | 0.56
Cc1ccc(CNC(=O)Cc2cn(C)c3ccccc23)cc1 | -1.1
Cn1c(=O)c(=O)n(C)c2cc(S(=O)(=O)N3CCC(N4CCCCC4)CC3)ccc21 | 0.69
CCOC(=O)C1=C(C)NC2=C(C(=O)c3ccccc32)C1c1cc(Br)c(OC)c(OCC)c1 (stereo not drawn) | -0.25

Not all compounds are listed; rates above refer to the full screens.
